# NPYLR7 ag = mosquito NPYLR7 agonism | HEK293T NPYLR7/Galpha15, GCaMP6s calcium fluorescence | 0.15% of 270,000 active | activation, % at 10 µM; in the data active = activation above about 40%;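 also: 0% = vehicle and 100% = reference agonist at the receptor; some compounds past the cut are filed as inactive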
# NPYLR7 ag max-min = also measured in NPYLR7 ag; calls as there; activation, %; measured here: Max-Min RFU normalised activation; some inactives read as strong as hits;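 span of the calcium signal over five minutes; 0% = vehicle and 100% = native peptide agonist; compound fluorescence can raise it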
# An asterisk follows results filed as active; & = joins results of further samples.
# The opening 3 compounds, to show the layout:
SMILES,NPYLR7 ag,NPYLR7 ag max-min
CCCCc1noc(CNc2cc(C(=O)NCC(F)(F)F)ccc2C)n1,5,1
CCCc1[nH]n(-c2ccccc2)c(=O)c1C1=C([n+]2ccccc2)C(=O)N(C2CCCCC2)C1=O,0,0
Cc1cc[n+](CCCS(=O)(=O)O)c2ccccc12,0,-11

# Results, repeating the preview:
SMILES,NPYLR7 ag,NPYLR7 ag max-min
CCCCc1noc(CNc2cc(C(=O)NCC(F)(F)F)ccc2C)n1,5,1
CCCc1[nH]n(-c2ccccc2)c(=O)c1C1=C([n+]2ccccc2)C(=O)N(C2CCCCC2)C1=O,0,0
Cc1cc[n+](CCCS(=O)(=O)O)c2ccccc12,0,-11
Cc1cc(-c2nn(C)c(Cl)c2CN2CC[C@H](CO)[C@@H](O)C2)no1,9,4
Cc1cc(NC(=O)C2(c3cccs3)CCOCC2)n[nH]1,-14,-6
CC1c2cccn2CCN1C(=O)Cn1nnnc1N (centres undefined),1,0
Cc1nc(Nc2ccc(NC(=O)Nc3ccc(F)cc3F)cc2)cc(-n2ccnc2)n1,9,7
CCCOc1ccc(-c2csc(NC(=O)CCCCl)n2)cc1,-4,-11
CCOC(=O)C1=C(C)Nc2ncnn2C1c1cccc([N+](=O)[O-])c1 (centres undefined),-2,-3
CCOC(=O)c1[nH]nc2c1C(=O)N(CC)C2=O,0,-7
COc1ccc(CCNC(=O)c2ccc(-c3cccc(Cl)c3)s2)cc1OC,-1,8
CCN(C(=O)c1ccc(Cl)cc1)C(C)c1nc2ccccc2c(=O)n1Cc1ccccc1 (centres undefined),-2,12
CCc1nc(-c2nccn2CCCOc2cccnc2)c(C)[nH]1,5,2
CN(C)CC1(O)CCN(C(=O)c2cc(=O)n(-c3ccccc3)[nH]2)C1 (centres undefined),2,3
CC=CC=CC(=O)NNC(=O)CC12CC3CC(CC(C3)C1)C2,2,1
C=CCSc1nnc(Nc2ccc(Oc3ccccc3)cc2)s1,6,4
Cc1nc2nc(N3C(=O)CCC3=O)nn2c(C)c1Cl,-4,-5
O=C(Nc1ccc2c(c1)OCO2)C(C1CCCC1)N1CCN(C(=O)c2ccco2)CC1 (centres undefined),16,18
Cc1ccsc1CN(Cc1ccc(F)cc1)C(=O)CN(C(=O)c1ccc(C(F)(F)F)cc1)C1CCCCC1,-3,-3
Cc1ccc(-c2nnc(SCC(=O)N3CCCCCCC3)n2C)cc1,9,5
Cc1ccc(CN2CCN(N=Cc3ccccc3)CC2)c(C)c1,-1,-5
COc1ccc(OC)c(-n2c(CNC(=O)c3ccco3)nnc2SCC(=O)Nc2cc(C)ccc2C)c1,-17,-12
CCc1nc2c(OCc3ccc(OC(F)F)cc3)cccn2c1N(C)C(=O)c1ccc(OC)cc1,8,3
CCSC1(SCC)N=C(N)C2(C#N)C(c3ccc(F)cc3)C12C#N (centres undefined),3,-2
O=C(c1cc(C(F)(F)F)[nH]n1)N1C[C@@H]2C3CCC(CC3)[C@@H]2C1,7,3
CC(C)N(Cc1nccn1C)C(=O)C1CCC(=O)N(CCc2ccccn2)C1 (centres undefined),-1&4,-2&1
O=C(NCCc1c[nH]c2ccc(O)cc12)c1cccnc1Nc1cc(Cl)cc(Cl)c1,6,4
CCN1CCCC1CNC(=O)CCC1CCN(C2CCN(c3ccccc3)CC2)CC1 (centres undefined),2,-1
COC(=O)c1cc(C(=O)OC)cc(N2C(=O)C3C4C=CC(C4)C3C2=O)c1 (centres undefined),12,8
COC(=O)[C@H]1C[C@@H](O)CCN1S(=O)(=O)c1ccc(-c2ccccn2)s1,24,9
CCCCOc1ccc(Cl)cc1CSc1nnc(CC)n1N,-14,-19
CC(=O)N1CCc2c(nc(N(C)C)nc2N2CCN(CCCO)CC2)C1,4,2
Cc1c(C=NN=c2sc3ccccc3n2C)n(C)n(-c2ccccc2)c1=O,5,4
COc1ccc(C(C2Sc3ncnn3C2=O)N2CCC(O)CC2)cc1OC (centres undefined),4,2
C#CCOc1cc(Br)c(/C=C/c2cc(C(F)(F)F)[nH]c(=O)n2)cc1OC,-4,-7
O=C(NCC1CCCO1)c1csc(COc2cccc(F)c2)n1 (centres undefined),1,7
C=CCNc1nc(-c2sc(C)nc2C)cs1,3,2
Cc1ccc(Cl)cc1N1CCN(CC(O)COCC23CC4CC(CC(C4)C2)C3)CC1 (centres undefined),5,9
CC(C)(C)S(=O)(=O)Cc1ccc(NC(=O)c2ncccc2O)cc1,2,1
CCCN1CCC(Cc2noc(-c3cccc4cnccc34)n2)CC1,2,-2

# For reference, seven of the compounds above.
SMILES,NPYLR7 ag,NPYLR7 ag max-min
Cc1c(C=NN=c2sc3ccccc3n2C)n(C)n(-c2ccccc2)c1=O,5,4
COc1ccc(C(C2Sc3ncnn3C2=O)N2CCC(O)CC2)cc1OC (centres undefined),4,2
C#CCOc1cc(Br)c(/C=C/c2cc(C(F)(F)F)[nH]c(=O)n2)cc1OC,-4,-7
O=C(NCC1CCCO1)c1csc(COc2cccc(F)c2)n1 (centres undefined),1,7
C=CCNc1nc(-c2sc(C)nc2C)cs1,3,2
Cc1ccc(Cl)cc1N1CCN(CC(O)COCC23CC4CC(CC(C4)C2)C3)CC1 (centres undefined),5,9
CC(C)(C)S(=O)(=O)Cc1ccc(NC(=O)c2ncccc2O)cc1,2,1

# Next part:
SMILES,NPYLR7 ag,NPYLR7 ag max-min
CCOC(=O)C(=NNc1cc(C(F)(F)F)ccc1Cl)N1CCCC1,25,8
CN1Cc2ccc(CN(C)c3nc(C(C)(C)C)nc4c3cnn4C)cc2C1,2,1
CCOc1ccc(NC(=O)CSc2nnc(C)c3cnn(-c4ccc(F)cc4)c23)cc1,-10,-18
O=C(Cc1ccsc1)N1CCC2(CC1)N=C(COc1ccccc1)NC2=O,15,2
Cc1ccc(Sc2cncc3sc(C(N)=O)cc23)cc1,-15,-21
COc1ccc(CN(Cc2ccc(F)cc2)CC(O)COc2ccccc2C)cc1OC (centres undefined),-8,-6
Cc1ccc(-n2c(SCc3ccccc3C)nnc2C(C)NS(=O)(=O)c2cccc3cccnc23)cc1 (centres undefined),13,7
CCOC(=O)c1nn(-c2ccccc2C)c(=O)cc1OS(=O)(=O)c1ccc(OC)c(OC)c1,-3,0
CCOc1ccc(Cl)cc1CNc1nnnn1C,-1,0
O=C1CC(C(=O)N2CCN(Cc3cccnc3)CC2)c2ccc(F)cc2N1 (centres undefined),9,8
CCc1nc2n(n1)C(=O)C(C(c1cccc(OC)c1)N1CCC(O)CC1)S2 (centres undefined),-2,-10
Cc1ccc(C)c(-n2nnnc2SCC(=O)Nc2cc(C)nn2-c2ccccc2C)c1,-2,0
CC(=O)Nc1ccc(NS(=O)(=O)c2c(C)n(C)c(=O)n(C)c2=O)cc1,1,-2
CCc1cccc(OCCCN(C)C(=O)c2ccc3n[nH]nc3c2)c1,6,3
O=C1c2cccc3c(N4CCOCC4)ccc(c23)C(=O)N1CCO,-9,-13
COc1ccc2[nH]c3c(c2c1)CCN(C(=O)C=C(C)C)C3COCc1ccccc1 (centres undefined),3,-6
OC1CCC(NCc2cccc(-c3ccccc3)c2)CC1 (centres undefined),2,2
Cc1nccn1CC1CCCN(Cc2c(Cl)cncc2Cl)C1 (centres undefined),-4,-10
O=C(c1cccc(-n2cnnc2)n1)N1CCOC(c2ccc(Cl)cc2)C1 (centres undefined),11,8
O=C(CCCCn1c(=O)[nH]c2ccsc2c1=O)NC1CC1,0,-2
Cc1ccc(C)c(-c2c(C)ccc(C)c2C(=O)O)c1C(=O)O,-6,-9
COC(Cn1ccnc1-c1ccc(C)s1)c1cccs1 (centres undefined),-5,-7
COC(=O)CS(=O)(=O)c1ccc2c(c1)CC(=O)N2,5,3
c1nc(NCCCN2CCOCC2)c2nc3n(c2n1)CCCCC3,8,5
O=C(C1Nc2ccccc2C2C=CCC12)N1CCn2cncc2C1 (centres undefined),-6,-9
COc1ccc(CNC(=O)C2CCN(Cc3cc4n(n3)CCCNC4)CC2)cc1,10,12
Nc1nc(N2CCCCC2)nc(NCc2ccco2)c1[N+](=O)[O-],2,0
Cc1c(CN(C)Cc2ccc(-c3ccn[nH]3)s2)cnn1C,1,3
CN(CC(=O)N1CCN(c2ccccc2)CC1)S(=O)(=O)c1cccc2cnccc12,8,3
CC(=O)N1CCN(c2ncccc2CNC(=O)c2ccc(C)s2)CC1,2,1
COc1ccc(N2C(=O)CN(C(=O)CSc3ccccn3)CC23CCCC3)cc1,17,3
O=C(CCc1cccnc1)N1CCc2c(nc(-c3ccccn3)[nH]c2=O)C1,6,4
O=C(CSc1nnc(-c2ccc(Cl)cc2)n1-c1ccccc1)N/N=C\c1ccc(O)cc1O,14,8
COc1cccc(CN2CCC(NC(=O)c3ncn(Cc4ccc(Cl)cc4)c3C)C2)c1 (centres undefined),7,0
O=C(CSc1nc(=O)n(CCCO)c2c1CCCC2)N1CCCCC1,-1,-14
Cc1cc(NC(=O)c2cccc(CN(C)C(C)c3ccco3)c2)n(C)n1 (centres undefined),0,12
Cc1ccc(C(C)NS(=O)(=O)c2ncn(C)c2Cl)o1 (centres undefined),-4,-5
O=c1oc(-c2cccs2)nn1CN1CCCC2CCCCC21 (centres undefined),-7,-4
CCc1nnsc1C(=O)N1CCCCC1CCn1cccn1 (centres undefined),0,21
CCOc1cc(Br)c(C(C)NC(C)=O)cc1OCC (centres undefined),2,10

# Compound profiles, as listed above.
# Record of COc1ccc(N2C(=O)CN(C(=O)CSc3ccccn3)CC23CCCC3)cc1 = NPYLR7 ag: 17; NPYLR7 ag max-min: 3
# Record of Cc1ccc(C(C)NS(=O)(=O)c2ncn(C)c2Cl)o1 (centres undefined) = NPYLR7 ag: -4; NPYLR7 ag max-min: -5
# Record of O=C(CSc1nc(=O)n(CCCO)c2c1CCCC2)N1CCCCC1 = NPYLR7 ag: -1; NPYLR7 ag max-min: -14

# (listing goes on)
SMILES,NPYLR7 ag,NPYLR7 ag max-min
CNC(=O)c1ccc(CN(C)c2ccc(C(F)(F)F)cn2)cc1,1,-3
CCCCN(CCO)CC(=O)N1CCCC1c1cccs1 (centres undefined),-3,-2
COc1cc(OC)cc(C(=O)N2CCN(c3ccccc3Cl)C(=O)C2C)c1 (centres undefined),-11,-8
Cc1cc(C)nc(-n2nc(C)c3c2N=C2CC(C)(C)CC(=O)C2C3c2ccc(C)o2)n1 (centres undefined),9,4
Cc1ccc(S(=O)(=O)N(C/C=C/c2ccccc2)C(=O)N2CCN(C)CC2)cc1,0,-2
CCCN(Cc1nccn1C)C(=O)c1cnn2c1CCCC2,2,2
O=C(NCc1ccco1)C1CC=CCC1C(=O)N1CCc2c([nH]c3ccccc23)C1 (centres undefined),-14,-26
Nc1nc(SCC(=O)Nc2cccc(F)c2)[nH]c(=O)c1NC(=O)c1ccc(F)c(F)c1,-3,-3
C=CCNC(=O)c1ccc(-c2ccccc2C(C)=O)cc1,2,2
COC(=O)CCn1c(=O)c2c(nc3n(-c4ccc(F)cc4)c(C)c(C)n23)n(C)c1=O,-5,-8
CC(C)c1cc(C(=O)N2CCn3nc(C(=O)Nc4ccccc4)cc3C2)no1,5,4
CC1CCc2c(sc(N)c2C(N)=O)C1 (centres undefined),5,67
Cc1cc(C)c(NS(=O)(=O)c2c(C)nn(C)c2C)c(C)c1,11,5
Cc1ccc2cc(CCNC(=S)NCCn3ccc4ccccc43)c(=O)[nH]c2c1,0,0
Cc1cccc2sc(N(CCCN3CCOCC3)C(=O)CCS(=O)(=O)c3ccccc3)nc12,-1,-6
Cc1cccc(Cc2nnc(CCC(=O)N3CC4C[C@@H]5CC3C[C@H](C4)C5)o2)c1,-6,-7
O=[N+]([O-])c1ccc(-c2c[n+](=O)c3c(n2[O-])CCCCC3)cc1,1,8
O=C(Nc1nc2c(Br)cccc2s1)Nc1c(F)cccc1F,-3,-4
COCCN(CC(=O)N(CCc1c[nH]c2ccccc12)Cc1ccc(C(F)(F)F)cc1)C(=O)Nc1cccc(OC)c1,1,-3
CC(C)=CCCC(C)(O)c1cc(C(N)=O)no1 (centres undefined),-5,-8
CN1C(=CC=C2C(=O)NC(=O)NC2=O)Sc2ccccc21,40,68
Cn1nccc1/C=C/c1nc(-c2ccc(Cl)cc2)cs1,-7,-6
COC(=O)[C@H]1Cc2c([nH]c3ccccc23)CN1C(=O)COc1ccc2c(C)cc(=O)oc2c1,2,2
Cc1ccc(NC(=O)CC(=O)N(C)Cc2cc(C)no2)c(C)c1,1,-1
Fc1ccc(-c2nnc(C3(c4cccc(Cl)c4)CCOCC3)o2)cc1,18,8
O=C(N[C@H]1CCCCNC1=O)c1ccc2oc(CCc3ccccc3)nc2c1,3,-1
O=C(Nc1c[nH]c2ccccc12)N(Cc1ccccc1)Cc1ccccc1,-2,-9
Cc1onc(-c2ccccc2)c1C(=O)Nc1ccc2[nH]cc(CCN3CCc4ccccc4C3)c2c1,3,5
O=C(NC(c1ccc(Cl)cc1)c1cnccn1)C1CCN(Cc2ccc(Oc3ccccc3)cc2)CC1 (centres undefined),5,8
COC(=O)c1cccc(CSc2nc3cc(S(=O)(=O)N4CCCC4)ccc3n2C(C)C)c1,11,4
O=C(NCc1ccccn1)c1ccc(CSc2nc(-c3ccccc3)cc(N3CCN(c4ccccc4Cl)CC3)n2)cc1,12,0
O=C(Nc1ccc(SCCCC(=O)N2CCN(Cc3ccccc3)CC2)nn1)C1CC1,0,-2
COc1cc(OC)cc(C(=O)N2CCN(c3ccccc3-c3ccccc3)C(=O)C2C)c1 (centres undefined),-4,5
Cc1cc(C(=O)N2C[C@H](Oc3ccccn3)[C@H]3C[C@@H]2CC[C@H]3N2CCOCC2)n(C)n1,30,36
COCCN(Cc1ccc(OC)c(OCc2nc(CO)cs2)c1)C(=O)C1CCCC1,14,17
C=CCNC(=O)c1c(O)nc2ccccn2c1=O,0,22
Cc1nnc(SC2CCc3ccccc3N(CC(=O)OC(C)(C)C)C2=O)o1 (centres undefined),-9,-13
CCCS(=O)(=O)N1CCN(c2ncnc3c2nnn3-c2ccc(C)cc2)CC1,-11,-16
CC1(C)CC2/C(CO)=C/C=C/[C@@](C)(O)CC[C@]21O (some centres undefined),-1,-4

# Screening data: PubChem BioAssay, Fisher Drug Discovery Resource Center

# A portion of the library; count on the stated rates, not on these rows.
